Screens deposited in PubChem BioAssay by several laboratories.
T cruzi inh: T. cruzi replication inhibition; T. cruzi beta-gal in NIH3T3, luminescence, 90 h; inhibition, % (no concentration beside the values); 300,000 tested, 1.4% active; AID 1885;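 active means mean inhibition across valid replicates above about 55%, limit read from the data; inconclusive means mean below that limit but half or more replicates reach it; inactive means mean below it, under half of replicates reach it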;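 further: signal also drops with host cell toxicity which is not excluded here; 0% = plate median of DMSO wells and 100% = zero luminescence signal; higher percent means less beta-gal luminescence so fewer parasites; stock transfer was 50 nL into about 50 µL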
Vif A3G: HIV-1 Vif–A3G interaction blockers – biochemical, TR-FRET, GST-Vif 1-94, biotin-A3G peptide, dose response retest, primary screen (AID 1117319) | one-dose inhibition, %; IC50 in µM for titrated hits | 260,000 tested, 0.57% active | TR-FRET GST-Vif / biotin-A3G peptide binding; higher % means a stronger effect; test concentration not given here; strong numbers were not always called active;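 active means above the screen mean plus three standard deviations and confirmed in dose response; inconclusive means results disagree or hit not tested in dose response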;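 further: Vif residues 1-94 fused to GST binding biotinylated APOBEC3G peptide 110-148; 0% = full assay without inhibitor and 100% = GST in place of GST-Vif; retest series ran down from 100 µM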
A1 inh: inhibitors of the anti-apoptotic protein A1, read as caspase activation. AID 2462. 330,000 tested, 0.066% active. caspase activation, % (concentration not given with the values). MEF A1-2A-BIM cells, Caspase-Glo 3/7 luminescence, 3 h; percent of clofoctol response, vehicle zero;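 active means over half of replicate activation scores above 10%, or exactly half above 10 with the replicate mean above 10; inconclusive means replicate mean below 10 yet half the replicates above 10; inactive means over half of replicates below 10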;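 further: wells of about 30 µL received 50 nL stock; many hits fall short of the cut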
MLL AF4-AF9 inh: MLL-AF4/AF9 protein interaction inhibition | P42568 | AlphaScreen, biotin-AF4 peptide binding to FLAG-AF9 | 350,000 tested, 0.47% active | inhibition, % at 10 µM;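 active means every replicate reaching a set inhibition limit, whatever the replicate mean, cut at about 25% in these data; inconclusive means mean inhibition reaches that limit but some replicates miss it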;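 further: 0% = plate neutral control median and 100% = total signal loss; the record names both 10 and 1 µM as test concentration; the first replicate is given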
Target sequence (P42568 whole entry, looked up): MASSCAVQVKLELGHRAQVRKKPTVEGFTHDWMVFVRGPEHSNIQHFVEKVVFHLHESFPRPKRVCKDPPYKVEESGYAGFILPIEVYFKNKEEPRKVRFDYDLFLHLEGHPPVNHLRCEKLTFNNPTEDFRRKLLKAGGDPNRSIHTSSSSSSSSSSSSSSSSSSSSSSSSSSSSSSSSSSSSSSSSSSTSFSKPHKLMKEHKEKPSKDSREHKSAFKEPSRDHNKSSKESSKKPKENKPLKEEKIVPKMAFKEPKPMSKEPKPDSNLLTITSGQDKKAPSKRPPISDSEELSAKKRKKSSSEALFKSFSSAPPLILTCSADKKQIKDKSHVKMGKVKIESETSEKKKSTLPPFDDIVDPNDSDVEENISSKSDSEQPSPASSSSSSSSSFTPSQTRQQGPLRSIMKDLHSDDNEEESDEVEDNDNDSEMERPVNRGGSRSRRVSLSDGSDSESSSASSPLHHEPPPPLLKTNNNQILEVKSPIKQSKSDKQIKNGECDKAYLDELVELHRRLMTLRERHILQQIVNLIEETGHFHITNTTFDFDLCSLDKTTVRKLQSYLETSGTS
Beta apoptosis: blocks beta cell apoptosis; INS-1E cytokine-induced death, ATP luminescence, 48 h; percent of positive-control rescue, neutral wells zero; protection from apoptosis, % (test concentration not listed); 300,000 tested, 0.8% active;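 active means all replicates at 75% or more, or half of them and the mean; inconclusive means half reach 75% but not the mean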;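 further: 0% = cytokine-treated negative control wells and 100% = positive control rescue; higher means more ATP so stronger rescue from cytokine killing; wells of about 40 µL received 100 nL stock; the first replicate is given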
rRNA inh HTS: inhibitors of bacterial rRNA selective over humanized ribosomes | E. coli WT GFP vs humanized-ribosome RFP mutants, fluorescence, 24 h; stronger effect = lower value; DMSO median 0, no signal -100 | 350,000 tested, 1.6% active | GFP signal change (wild-type ribosome), % (concentration not given with the values);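 active means significant combined selectivity score with lowered wild-type GFP, culture density cut under 30%, mutant RFP and density less affected; inactive means any of these conditions unmet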; further: one replicate is shown; some compounds called inactive have numbers as strong as hits
Calb FLC: C. albicans growth modulation with fluconazole. 300,000 tested, 0.57% active. AID 1979. growth inhibition, % (concentration not given with the values). C. albicans CaCi-2 (fluconazole-resistant clinical isolate) + fluconazole, Alamar Blue growth, 48 h;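 active means most replicates above 75%; inconclusive means exactly half above 75%; inactive means most below 75%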;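 further: all wells also contain fluconazole at 8 µg/ml as a sub-toxic cotreatment; 0% = median of DMSO wells and 100% = median of geldanamycin control wells; wells of about 8 µL received 7.5 nL stock; the first replicate is given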
RanGTP-Impb inh: disruptors of Ran-importin-beta complex formation – biochemical, FRET, CFP-Ran, YFP-importin-beta, homogeneous, primary screen; AID 2216; 300,000 tested, 1.1% active; inhibition, % (concentration not given with the values); cell-free CFP-Ran/YFP-importin-beta FRET ratio;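 active means most replicates above 15%; inconclusive means exactly half above 15%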;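 further: 0% = DMSO wells and 100% = Ran loaded with GDP instead of GTP; wells of about 40 µL received 100 nL stock; the first replicate is given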
rRNA inh HTS OD600: second read-out of rRNA inh HTS, no call of its own (marks repeat the call); OD600 change, %; measured here: OD600 growth;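 optical density of the mix in the first replicate; 0 = DMSO median and -100 = no signal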
rRNA inh HTS RFP: recorded beside rRNA inh HTS, whose call it bears; RFP signal change, %; measured here: RFP humanized mutant strains;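 first replicate; 0 = DMSO median and -100 = no signal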
Active calls of the source: *; ? = inconclusive; . = not tested or not shown; & = joins results of further samples. The list is partial. The share of hits here may be higher or lower than overall.

SMILES	T cruzi inh	Vif A3G	A1 inh	MLL AF4-AF9 inh	Beta apoptosis	rRNA inh HTS	rRNA inh HTS OD600	rRNA inh HTS RFP	Calb FLC	RanGTP-Impb inh
O=C(NCc1ccco1)/C(=C/c1ccc([N+](=O)[O-])cc1)NC(=O)c1ccco1	?	.	3.4	-0.7	3	2	2	-3.3	-17	-2.4
O=C(Nc1ccc2oc(-c3cccnc3)nc2c1)c1ccc2c(c1)OCCO2	-1	-7%	-0.5	.	-6	.	.	.	3	0.9
Clc1ccc(CN2CCCCCCC2)cc1Cl	16	-1%	0.2	.	3	.	.	.	-29	-0.2
CCOC(=O)Cc1csc(NS(=O)(=O)c2cc(Cl)ccc2Cl)n1	-4	.	1.0	3.2	-2	4	6	3.3	13	-1.8
CCc1ccc(NC(=O)/C(C#N)=C\c2ccc(OC)c(C(=O)O)c2)cc1	-17	.	-0.4	0.5	-3	-18	0	4.5	-8	-2.4
O=S(=O)(NCC1CCCO1)c1ccc(-c2ccc(Cl)cc2)cc1 (stereo not given)	13	14%	0.3	-3.1	9	-25*	-11*	-3.1*	16	.
O=C(COC(=O)/C=C/c1ccc(Cl)cc1)NCCc1ccccc1	-31	.	0.1	-1.0	7	7	12	1.2	-4	-2.7
CC(C)(C)C(=O)N1CCN(CCN2C(=O)c3cccc4cccc(c34)C2=O)CC1	-6	.	-0.7	0.5	0	11	9	0.4	-28	3.2
COc1ccc(CCNC(=O)Cn2nc(C)c3c(C)n(-c4ccccc4)nc3c2=O)c(OC)c1	9	.	1.1	-4.5	-4	8	2	0.6	-10	5.6
CCOC(=O)C1=C(C)Nc2ccccc2N=C1N	5	7%	0.6	-0.6	-3	3	6	1.8	0	1.5
CCOC(=O)c1c(C)[nH]c(C)c1S(=O)(=O)N(C)CC(=O)NCc1cccc(C)c1	-4	.	-0.1	0.5	4	-1	-6	5.3	0	-0.7
Cc1no[n+]([O-])c1COc1cccc(/C=C2\N=C(c3ccccc3)OC2=O)c1	-1	.	-0.1	.	.	.	.	.	-3	-2.7
CC(C)n1c(=S)[nH]c2ccccc2c1=O	-17	1%	0.2	.	4	.	.	.	-4	-1.0
COc1ccc(Br)cc1/C=N/Nc1ccccn1	2	.	0.7	0.0	-2	14	13	-3.4	-7	4.3
CN1CCN(CCC(=O)N2c3ccccc3Sc3ccc(Cl)cc32)CC1	48	?	0.0	.	-3	-5	0	-0.3	-18	11
O=c1[nH]c(-c2cccs2)nc2ccccc12	-18	1%	-1.8	.	-7	.	.	.	-3	?
Cc1nc(C(F)(F)F)c(C(=O)N=CN(C)C)s1	-7	2%	0.0	-0.7	-1	10	10	-0.1	2	0.2
CC(=O)N1c2ccccc2CCc2ccc([N+](=O)[O-])cc21	-16	.	0.4	-0.6	-1	7	6	-1.1	3	1.7
CCN(CC)C(=O)c1ccc(S(=O)(=O)c2ccccc2)cc1	-6	.	0.2	3.7	2	23	15	1.8	-5	1.5
C=CCn1c(SCC(=O)c2cc(C)n(CC3CCCO3)c2C)nnc1-c1ccccc1 (stereo not given)	11	10%	0.5	.	1	.	.	.	-14	-6.9
CCC(=O)Nc1ccc(/C=C(\C(C)=O)C(=O)c2ccccc2)cc1	-11	4%	-0.8	2.8	-2	-22	-20	-1.9	-2	0.6
CCOC(=O)C(Cc1ccccc1)NC(=O)CCCC(=O)c1ccccc1 (stereo not given)	-3	-12%	0.1	0.5	-6	-2	-17	-3.2	-8	?
Cn1c(SCC(=O)Nc2ccc(Cl)cc2)nnc1C1CC1	-3	-4%	0.1	1.3	2	-1	1	-2.2	-2	-1.8
COc1ccccc1NC(=O)Cn1cnc2c1c(=O)n(C)c(=O)n2C	-10	24%	-0.1	.	-9	.	.	.	-5	-2.4
Cc1ccc2c(c1)C1CN(C)CCC1N2C(=S)Nc1ccc(Cl)cc1Cl (stereo not given)	11	-8%	1.1	7.7	-9	.	.	.	-7	-0.2
COc1cc(Cl)ccc1OCc1cc(C(=O)N2CCC(N(C)C)C2)no1 (stereo not given)	20	.	1.2	2.0	2	-1	-7	-2.9	-13	2.4
CCc1nc(SCC(=O)Nc2ccccc2Cl)n[nH]1	-9	0%	0.6	3.8	-4	2	1	3.0	-8	3.3
N#Cc1c(C#N)c(O)c2ccccc2c1O	10	14%	0.5	-5.4	0	22	9	0.0	1	2.1
Cc1cc(C)cc(NC(=S)NCC2CCN(C(C)c3ccccc3)C2)c1 (stereo not given)	43	23%	0.4	14	4	6	1	-7.7	-3	?
CCn1c(CC(=O)Nc2ccc(Cl)c(Cl)c2)nnc1SCc1ccc(Cl)cc1	8	.	0.3	.	-2	.	.	.	-18	-0.8
Cc1ccc(C(C)NC(=O)c2ccc3c(c2)OCCO3)cc1C (stereo not given)	-5	.	0.7	-1.0	.	-7	-8	-0.2	-5	0.9
Cc1nc(Nc2ccccc2F)c2nnn(Cc3ccccc3Cl)c2n1	-8	.	-0.3	-13	.	17	6	0.1	2	35*
COCc1cc(C)nc(N2CCCCC2)c1C#N	-16	-5%	0.2	.	1	.	.	.	-8	1.6
O=C(NN1CCOCC1)c1ccccc1	-6	-4%	0.3	0.2	0	5	6	0.4	-1	4.5
O=C(Nc1nc(-c2ccc(F)c(F)c2)cs1)Nc1ccc(F)cc1F	-8	-3%	0.0	-6.6	61	4	10	0.5	-12	?
CCCn1c(SC(C)C(=O)NCC2CCCO2)nc2cc(Cl)ccc2c1=O (stereo not given)	4	.	0.3	-18	8	4	5	0.6	10	.
CC(=O)N1CCC(=NNC(=O)c2cc3ccccc3cc2O)CC1	-8	.	0.7	6.4	-2	19	2	-1.4	82*	-4.8
Cc1c([N+](=O)[O-])c(C(=O)NC2CCCC2)nn1C	-6	.	.	-0.8	.	7	8	-0.6	-3	1.0
O=C(Nc1nccs1)C12CC3CC(C1)CC(C(=O)Nc1nccs1)(C3)C2	2	-7%	1.4	.	-8	.	.	.	6	-18
CCCCOC(=O)c1ccc(NC(=O)C(CCS(C)(=O)=O)NC(C)=O)cc1 (stereo not given)	-12	-4%	0.0	.	1	.	.	.	17	-0.7
C=Cc1ccc(C(=O)N2CCCC(CCC(=O)N3CCN(c4ccccn4)CC3)C2)cc1 (stereo not given)	5	.	-0.9	3.7	5	-3	-9	0.3	-6	1.3
CCN(CC)S(=O)(=O)c1cccc(-c2nnc(C(=O)c3ccc(C(F)(F)F)cc3)o2)c1	8	10%&-11%	0.0	.	3	.	.	.	-1	0.3
CSCC[C@H](NC(=O)OC(C)(C)C)C(=O)N1CCC(C(=O)N[C@@H](C)C(=O)NC(C)c2ccccc2)CC1 (stereo not given in full)	-4	.	-0.1	-1.6	-3	.	.	.	5	-3.5
NC(=O)C1CCN(C(=O)c2cc3ccccc3cc2O)CC1	8	-2%	1.0	-0.8	-8	8	7	0.8	2	.
O=C(Cn1c(=O)[nH]c2ccccc2c1=O)Nc1cccnc1	-12	7%	0.9	-2.4	.	8	7	0.0	-2	-1.9
Cc1ccc2c(CC(=O)NCCc3ccc(S(N)(=O)=O)cc3)coc2c1	-1	-3%	0.8	-1.2	0	0	-6	-0.9	1	?
O=C(COC(=O)c1ccco1)Nc1nc2c(F)c(F)c(F)cc2s1	-15	.	0.5	0.8	2	-13	-5	-0.5	-12	-0.3
CCOC(=O)Cn1nc(C)c(NC(=O)COc2ccc([N+](=O)[O-])cc2)c1C	1	2%	0.1	-0.4	-6	16	9	1.5	-7	3.7
COc1ccc(CCNc2oc(-c3ccc(OC)c(OC)c3)nc2C#N)cc1	10	17%	-0.4	.	0	.	.	.	-3	8.8
CN1CCN(S(=O)(=O)c2cccc(C(=O)Nc3cc(C(F)(F)F)ccc3N3CCCC3)c2)CC1	4	7%	-0.3	0.7	0	4	12	0.8	8	-1.9
CCOC(=O)c1c(C)oc2c1c(C(c1cccnc1)N1CCOCC1)c(O)c1ccccc12 (stereo not given)	3	5%	-0.3	.	-21	.	.	.	25	4.1
CCOC(=O)c1c(NC(=O)Cn2cnc([N+](=O)[O-])n2)sc2c1CCC(C)C2 (stereo not given)	57*	-5%	0.2	.	.	.	.	.	4	-1.1
CCOC(=O)Cn1c(CN2CCN(C(c3ccccc3)c3ccccc3)CC2)nc2c1c(=O)n(C)c(=O)n2C	12	2%	0.5	1.2	-3	-3	-11	9.0	6	4.1
COC(=O)CCN(C(=O)c1ccc(C)c([N+](=O)[O-])c1)c1ccccn1	-3	-1%	-0.9	1.2	-1	9	1	1.4	-15	2.7
CCOCCOC(=O)C1=C(C)N(C)C(=O)NC1c1cc(Cl)c(O)c(OCC)c1 (stereo not given)	4	28%	0.1	.	-22	.	.	.	2	9.3
O=C(Nc1ccccc1)N1CCn2c(nc3ccccc32)C1	6	-4%	-1.0	.	2	.	.	.	0	5.1
Cc1ccc2occ(/C=N/NC(N)=S)c(=O)c2c1	-1	-7%	0.0	2.3	-5	10	6	0.8	-4	-1.9
Cn1nnnc1SCC(=O)Nc1ccc(Oc2ccccc2)cc1	8	-1%	0.0	.	3	.	.	.	3	0.5
Nc1nc(-c2ccc3c(c2)OCCO3)cs1	6	?	-2.5	.	-3	.	.	.	?	3.0
CN1CCCCC1=NCCCn1cnc2c1c(=O)n(C)c(=O)n2C	-13	-4%	0.9	.	4	.	.	.	-7	-4.0

Later entries:
SMILES	T cruzi inh	Vif A3G	A1 inh	MLL AF4-AF9 inh	Beta apoptosis	rRNA inh HTS	rRNA inh HTS OD600	rRNA inh HTS RFP	Calb FLC	RanGTP-Impb inh
COc1cccc(NC(=O)CN(C)C(=O)c2ccc(S(=O)(=O)Nc3ccccc3C)cc2)c1	.	1%	-0.5	0.5	-1	.	.	.	.	.
CC(Sc1nnc(-c2ccco2)n1-c1ccccc1)C(=O)NCC1CCCO1 (stereo not given)	.	-8%	0.4	0.9	-3	5	7	1.6	.	.
CCOC(=O)c1c(-c2ccc(OC)cc2)oc2ccc(OCC(N)=O)cc12	3	-2%	-0.8	-1.0	-2	14	2	0.9	1	1.1
COc1ccc(S(=O)(=O)NCCCCCC(=O)O)cc1C(=O)O	-7	.	-0.4	-1.0	-2	13	9	1.0	-7	-3.1
COc1cc(NC(=S)NCCN2CCOCC2)cc(OC)c1	8	.	-0.4	3.4	-3	16	14	-7.9	0	1.3
C#CCn1cnc2c(cnn2-c2ccc(C)c(C)c2)c1=O	-11	-10%	-1.2	.	0	.	.	.	1	-3.4
Cc1cc(=O)[nH]c(SCc2ccccc2)n1	-13	.	-1.3	0.0	-1	-7	-5	-0.2	8	5.2
COc1cccc(CNC(=O)N2CCN(S(=O)(=O)c3ccc(C)cc3)CC2)c1	-1	.	-0.2	0.5	-2	1	3	0.8	1	7.3
